Source: PubChem BioAssay
MbtI inh: MbtI salicylate synthase inhibitors, primary screen, biochemical, fluorescence intensity; purified MbtI enzyme, fluorescence intensity read-out; P9WFX0; inhibition, %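 (about 17 µg/mL by stock and volumes)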; 0.89% of 100,000 active;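 active means above 50% in both replicates, above 80% if mildly self-fluorescent; inactive means the rest, strongly fluorescent compounds included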;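 further: 0% = mean of negative and 100% = mean of positive controls; one replicate is shown; some compounds called inactive have numbers as strong as hits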
Polio RdRp inh: poliovirus RdRp elongation inhibitors, primary screen, biochemical, fluorescence polarization, total intensity. Genome polyprotein (Poliovirus type 1 (strain Mahoney)), P03300. poliovirus polymerase elongation; hits give low values. % elongation, % (compound at 16.7 µg/mL). 0.66% of 150,000 active. AID 588519, 2011; in the data active means % elongation below about 90%; further: some results filed as inactive read as strong as hits
Target sequence (P03300 1749-2209 limits assumed): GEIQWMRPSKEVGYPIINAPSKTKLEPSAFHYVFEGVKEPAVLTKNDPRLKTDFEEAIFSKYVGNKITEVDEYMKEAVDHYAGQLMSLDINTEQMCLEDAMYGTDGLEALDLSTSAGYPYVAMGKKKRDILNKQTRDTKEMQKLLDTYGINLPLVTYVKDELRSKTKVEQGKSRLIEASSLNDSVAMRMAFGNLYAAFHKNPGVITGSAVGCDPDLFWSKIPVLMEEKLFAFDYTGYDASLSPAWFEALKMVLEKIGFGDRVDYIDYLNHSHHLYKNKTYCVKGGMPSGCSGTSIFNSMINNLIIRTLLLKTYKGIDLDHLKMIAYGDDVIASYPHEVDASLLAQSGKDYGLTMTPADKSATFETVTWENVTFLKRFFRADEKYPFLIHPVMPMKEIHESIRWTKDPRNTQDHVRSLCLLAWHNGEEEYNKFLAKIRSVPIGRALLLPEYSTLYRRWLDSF
MenB inh: M. tuberculosis MenB inhibitors, primary screen, biochemical, absorbance | MenB enzyme assay, absorbance read-out; some hits fall short of the stated cut | inhibition, %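 (about 12 µg/mL by stock and volumes)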 | 0.43% of 100,000 active;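 active means mean of two replicates above 30%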;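 further: 0% = no compound and 100% = wells with inactive enzyme; the first replicate is given; strong numbers were not always called active; inactives centre near -10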
Target sequence (P9WNP5 whole entry, looked up): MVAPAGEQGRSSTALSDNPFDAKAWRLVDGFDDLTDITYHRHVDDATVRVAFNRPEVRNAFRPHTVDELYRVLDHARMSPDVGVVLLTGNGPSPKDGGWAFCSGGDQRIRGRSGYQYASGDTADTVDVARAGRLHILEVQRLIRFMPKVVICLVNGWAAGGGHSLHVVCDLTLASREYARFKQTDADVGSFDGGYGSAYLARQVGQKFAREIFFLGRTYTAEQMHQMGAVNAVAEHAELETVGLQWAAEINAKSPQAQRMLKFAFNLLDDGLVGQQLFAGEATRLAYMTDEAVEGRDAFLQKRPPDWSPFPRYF
Polio RdRp inh intensity: recorded beside Polio RdRp inh, whose call it bears; % elongation; measured here: total intensity read-out; formula for this scale not given here;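 total fluorescence in place of polarization; lower means less elongation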
The depositor's hits bear a star; nt = not tested or not shown.

Molecule | MbtI inh | Polio RdRp inh | Polio RdRp inh intensity | MenB inh
CC(C)(C)c1cc(C(=O)NCc2cccs2)cc(C(=O)NCc2cccs2)c1 | -7 | 105 | 102 | -24
CN(C)c1ccc(CNCc2ccccc2)cc1 | 6 | 102 | 104 | 0
O=C(Nc1ccccc1)N(Cc1ccco1)C1CCS(=O)(=O)C1 (stereo not given) | -16 | 102 | 103 | -20
CC1CCN(C(=O)C2C3C=CC(C3)C2C(=O)O)CC1 (stereo not given) | nt | 92 | 94 | -3
COc1cccc(CN(C)C(=O)c2ccccc2Cl)c1OC | 1 | 102 | 107 | -16
Clc1ccc(-c2ccc(Cl)cc2)cc1 | -10 | 107 | 112 | 6
COc1cccc(N2C(=O)CC(N3CCC(C(N)=O)(N4CCCCC4)CC3)C2=O)c1 (stereo not given) | 9 | 101 | 100 | -37
CCOC(=O)c1[nH]c(C)c(C(=O)N2CCN(c3ccccc3)CC2)c1CC | 10 | 100 | 98 | -16
CCCC1=Nc2cc(C(=O)NC)ccc2Sc2ccccc21 | -1 | 106 | 100 | -6
CCOc1ccc(CCNC(=O)CC2Oc3ccccc3NC2=O)cc1 (stereo not given) | -1 | 100 | 104 | 12
CCN(CC)P1(=O)OC(C)(C)CC1(C)O (stereo not given) | -7 | 100 | 101 | -11
CC(NCc1nc2ccccc2n1C)C12CC3CC(CC(C3)C1)C2 (stereo not given) | 0 | 101 | 96 | 1
CC(=O)N1CN2CN(C1)CN(C(C)=O)C2 | 2 | 103 | 99 | -12
Cn1/c(=N/N=C2\C(=O)Nc3ccc(F)cc32)sc2ccccc21 | 3 | 107 | 140 | -20
CC1(C)N=C(NC(=O)NC(=O)c2ccccc2Cl)N(c2ccccc2)O1 | -11 | 105 | 111 | -5
COc1ccc(NC(=O)CCN2CCOCC2)cc1 | 0 | 98 | 102 | 0
COc1ccc(-c2ccc(-c3ccccc3)o2)cc1 | nt | 103 | 109 | -5
CCOC(=O)c1cc(-c2ccco2)nn1-c1ccc(C)cc1C | 7 | 118 | 132 | -17
Cc1cc(=O)n(Cc2ccc(Cl)cc2)c(SCC(N)=O)c1C#N | 17 | 100 | 105 | -14
Cc1ccc(NC(=O)COC(=O)CN2CSCC2=O)cc1C | -3 | 100 | 106 | -12
CN(C)c1ccc(/C=N/n2cnc3ccccc32)cc1 | -36 | 102 | 108 | nt
N#C/C(=C(/O)c1cccc(Cl)c1)c1nc2ccccc2s1 | 21 | 101 | 103 | -9
Cc1ccc(C)c(C(=O)COC(=O)c2cccc(C(=O)OCC(=O)c3cc(C)ccc3C)n2)c1 | 5 | 101 | 103 | -4
CCC(C)(C)NC(=O)Cn1c(C)csc1=O | -3 | 103 | 107 | -16
CCNc1nc(NCC)nc(NNS(=O)(=O)c2cc(Br)ccc2Br)n1 | 7 | 103 | 101 | -2
Cn1ncc(C(=O)O/N=C/c2ccc(OC(F)(F)F)cc2)c1-n1cccc1 | 2 | 102 | 101 | 15
O=C(CSc1ccccc1)N1CCc2ccccc2C1 | -10 | 100 | 97 | nt
Cc1ccc(NC(=O)COC(=O)C2=NC=CN3CCS(=O)(=O)N=C23)cc1 | -2 | 104 | 106 | -43
O=C(CN=C1NS(=O)(=O)c2ccccc21)N1CCC(c2nc3ccccc3s2)CC1 | -8 | 101 | 105 | -10
O=C(CSc1nncs1)NCCN1C(=O)CSC1=O | 5 | 103 | 104 | 2
O=C(NCCC1=CCCCC1)c1ccc2c(c1)ncn2C1CCCC1 | -6 | 100 | 106 | -13
CCCCOC(C)n1ccc(=O)[nH]c1=O (stereo not given) | -6 | 99 | 101 | 6
Clc1cc2c(c3ncccc13)OCN(CCC1=CCCCC1)C2 | 4 | 101 | 110 | -41
COc1ccccc1NC(=S)N/N=C1/C=C(C)CC1 | 21 | 124 | 109 | -95
N=c1ccn(CC(=O)N2CCCc3ccccc32)c2ccccc12 | 12 | 101 | 103 | -4
Cc1ccc(SC(=O)c2ccc(C#Cc3ccccc3)o2)cc1 | -6 | 101 | 93 | 8
N#Cc1ccc(Oc2ccc(NC(=O)c3ccc(Br)o3)cc2)cc1 | -8 | 104 | 100 | -17
Cc1ccc(-c2cc(C)n3nc(N4CCOCC4)c(C#N)c3n2)cc1 | -23 | 104 | 103 | -28
CNC(=O)CSc1nc2ccccc2[nH]1 | -3 | 102 | 104 | 4
O=C(N/N=C/c1ccc(F)cc1)c1ccc(NC(=O)C2CC2)cc1 | 2 | 103 | 101 | 29
CCn1c(NNC(=O)c2cccnc2)nc2ccccc21 | 16 | 100 | 103 | -2
CCOc1ccccc1NC(=O)C1CCC(=O)N1S(=O)(=O)c1ccc(C)cc1 (stereo not given) | 18 | 98 | 99 | -4
Cc1cc2n(n1)C(c1ccccc1)Nc1ccccc1-2 (stereo not given) | 89 | 100 | 101 | 12
COc1ccccc1NC(=S)Nc1ccccc1 | 0 | 103 | 108 | -16
COc1ccc(NC(=O)c2oc3ccc(S(=O)(=O)N4CCC5(CC4)OCCO5)cc3c2C)cc1 | 3 | 99 | 106 | 0

Part of the list above in order of SMILES length, largest number first.
Molecule | MbtI inh | Polio RdRp inh | Polio RdRp inh intensity | MenB inh
COc1ccc(NC(=O)c2oc3ccc(S(=O)(=O)N4CCC5(CC4)OCCO5)cc3c2C)cc1 | 3 | 99 | 106 | 0
O=C(N/N=C/c1ccc(F)cc1)c1ccc(NC(=O)C2CC2)cc1 | 2 | 103 | 101 | 29
Cc1ccc(SC(=O)c2ccc(C#Cc3ccccc3)o2)cc1 | -6 | 101 | 93 | 8
CNC(=O)CSc1nc2ccccc2[nH]1 | -3 | 102 | 104 | 4

(continued)
Molecule | MbtI inh | Polio RdRp inh | Polio RdRp inh intensity | MenB inh
CCCC1c2cccn2CCN1C(=O)NCc1ccccc1 (stereo not given) | 2 | 101 | 101 | 6
O=S(=O)(NC1CCCCC1N1CCCCC1)c1ccc(Cl)cc1 (stereo not given) | 2 | nt | nt | 11
O=C(CN1C(=O)C2CC=CCC2C1=O)OCc1nnc(-c2ccccc2Br)o1 (stereo not given) | 30 | 102 | 100 | -34
CC(Sc1ncnc2c1oc1ccccc12)C(=O)c1ccc(F)cc1 (stereo not given) | 12 | 105 | 135 | -8
CC1(C)CC(=O)c2cnn(-c3nc4ccccc4[nH]3)c2C1 | -24 | 101 | 103 | -9
O=C(Cc1ccccc1F)Nc1ccnn1Cc1ccccc1 | -6 | 106 | 106 | -32
O=C(Cn1cnc2ccccc21)N1CCc2ccccc21 | -7 | 100 | 104 | nt
CCCn1c(N)c(C(=O)CSc2ccc(S(=O)(=O)N3CCN(C)CC3)cn2)c(=O)[nH]c1=O | 21 | 103 | 105 | -4
O=C(Cc1c(F)cccc1Cl)NC(=O)Nc1ccc(F)c(Cl)c1 | -24 | 101 | 99 | 6
Cc1nc2ccccc2n1-c1ccc(S(N)(=O)=O)cc1 | nt | 104 | 98 | 7
CN(C)C(=O)CN1CCN(Cc2nc3c(Br)cc(Br)cc3c(=O)[nH]2)CC1 | -12 | nt | nt | -20
COc1ccc(C(=O)NC2=Nc3ccccc3N=C(C)C2c2ccccc2)cc1 (stereo not given) | -2 | 103 | 105 | -11
S=C(NCc1ccco1)NNC(=S)Nc1ccc(Cl)cc1 | 34 | 98 | 102 | -52
CCCCn1c(COc2ccccc2C#N)nc2cc(S(N)(=O)=O)ccc21 | -21 | 103 | 105 | -48
COC(=O)c1cc2sc(Cl)cc2n1CC(=O)Nc1ccc(C)cc1C | 1 | 101 | 104 | 10
Cc1ccc(C)n1-c1cccc2cccnc12 | 2 | 96 | 115 | -25
CC(=O)N1CCN(S(=O)(=O)c2cccc(C(=O)NC3CCCCCC3)c2)CC1 | -5 | 102 | 94 | -24
COc1cc(C)nc(SCC(N)=O)n1 | -11 | 100 | 93 | 0
CC1(C)Cc2c(c(N3CCOCC3)nc3oc(C(=O)c4ccccc4)c(N)c23)CO1 | 3 | 103 | 101 | 6
Cc1ccc(C)c(OCc2nc3ccccc3n2C(C)C)c1 | -8 | 102 | 102 | -43
N#Cc1ccc(CSc2ncccn2)cc1 | nt | 100 | 104 | -5
N#CCSc1ncnc2cc(-c3ccc(Cl)cc3)sc12 | -10 | 108 | 120 | -21
C/C(=N\OC(=O)c1ccc(C(F)(F)F)cc1)c1cc[nH]c1 | 3 | 101 | 103 | 9
O=C(O)C1CCC(CNCc2ccccc2Cl)CC1 (stereo not given) | -10 | 99 | 103 | -4
COc1ccc(S(=O)(=O)Nc2cncc(C(=O)Nc3ccc(C(F)(F)F)cc3)c2)cc1 | -13 | 105 | 109 | -5
O=C(O)c1ccccc1C(=O)NCc1nc(-c2ccc(C(F)(F)F)cc2)no1 | -17 | 100 | 104 | -6
Cc1cc(=O)n(C(C)(C)C)c(=O)n1Cc1ccccc1 | 1 | 100 | 104 | -13
Cc1cccc(CSc2nncn2C)c1 | nt | 102 | 102 | 12
Cc1cc(C)c2cccnc2c1O | -7 | 101 | 103 | -11
O=C1N=c2ccccc2=C1c1sc(Nc2cccc(C(F)(F)F)c2)nc1O | 5 | 102 | 103 | -11
O=C1O[C@H]2C[C@@H]3C[C@H]2[C@H]1[C@@H]3C(=O)N(Cc1ccccc1)Cc1ccccc1 | -9 | 101 | 101 | -5
CCN(CC)C(=O)Cn1c(C)c(/C=C/C2=CCN(C)CC2)c2ccccc21 | 16 | 109 | 123 | -44
CCOc1ccc(OCCCC(=O)Nc2nc3ccccc3[nH]2)cc1 | 4 | 105 | 103 | 17
CCOC(=O)N1CCC(NC(=O)C2CCN(c3nnc(-n4cccc4CNc4ccc(OCC)cc4)s3)CC2)CC1 | 3 | 102 | 104 | -17
Cc1[nH]c2ccccc2c1C(C#N)(C#N)C1C(=O)c2ccccc2C1=O | -5 | 112 | 130 | nt
O=C(c1csc2c1CCCC2)N1CCCCCCC1 | 2 | 100 | 100 | 1
COc1nc(N2CCOCC2)nc(N2CCN(c3ccc(F)cc3)CC2)n1 | 1 | 102 | 102 | 13
Cc1cccc(NC(=O)CSc2ccccn2)c1 | nt | 106 | 109 | 2
CC(C)n1c(CNC(=O)c2ccccc2)nc2ccccc21 | 4 | 102 | 103 | -14
Cc1ccc(Cn2c(=O)n(Cc3ccccc3)c(=O)c3ccccc32)cc1 | -5 | 105 | 107 | -23
CN(C)S(=O)(=O)c1ccc(NC(=O)COC(=O)C2CC3CCCC(C2)C3=O)cc1 (stereo not given) | -9 | 101 | 88 | -21
CCN(CC)S(=O)(=O)c1ccc2c(c1)nc(CCC(=O)OCc1ccc(C(=O)OC)o1)n2C | 5 | 107 | 112 | -1
COCCn1c(SCC(=O)N2CCOCC2)nc2c(c1=O)SC(C)C2 (stereo not given) | 0 | 102 | 107 | -5
CCOC(=O)c1oc2ccc(OC)cc2c1CN1CCN(C)CC1 | nt | 102 | 99 | 7
O=c1cc(CSc2nnnn2C2CC2)nc2sccn12 | 6 | 103 | 110 | 9
CC1=NN(c2ccccc2)C(=O)/C1=C/c1cc(C)n(C2CC2)c1C | -7 | 109 | 109 | -17
Cc1cc(=O)oc2cc(OCC(=O)NCC3CCCCC3)c(Cl)cc12 | 3 | 102 | 106 | nt
CC(OC(=O)CCc1nc2ccccc2[nH]c1=O)C(=O)c1ccccc1 (stereo not given) | 31 | 101 | 102 | 7
CCOC(=O)c1cnc2cc(-c3ccco3)[nH]n2c1=O | -5 | 103 | 97 | 15
CC1C(=N)N(c2nc(N(C)C)nc(N(C)C)n2)CC1=O (stereo not given) | -5 | 104 | 102 | -5
O=c1c2cc(-c3ccccc3)sc2ncn1-n1cccc1 | -3 | 102 | 103 | nt
CC1CNc2ccccc2NC1=O (stereo not given) | -3 | 100 | 103 | 12
C/C(=N\NC(=O)c1ccc(N)cc1)C(C)(C)C | 6 | 103 | 102 | -50
COc1ccc(CN2CCCC2)cc1OC | -31 | 101 | 103 | -4
Cc1ccc(C(=O)Cn2c3ccccc3n3ncnc23)cc1 | nt | 108 | 109 | -11
O=C1Nc2ccccc2/C1=C/c1cccnc1 | 23 | 101 | 104 | -39
CC(=O)N1c2ccc(S(=O)(=O)N3CCCC3C(=O)NCc3ccc4c(c3)OCO4)cc2CC1C (stereo not given) | -11 | 106 | 99 | -21
O=c1c(Cc2cc(Cl)cc(Cl)c2O)c(O)nc2n1CCCS2 | 8 | 103 | 104 | 10
CCc1cccc2c1=NC(=O)C=2c1c(C)[nH]n(-c2ccccc2)c1=O | 85* | 97 | 100 | -4
Cc1cc(NC(=O)CSc2nc3nccnc3c(=O)n2Cc2ccccc2)n[nH]1 | 2 | 100 | 101 | 3
CC(=O)Nc1ccc(Cl)c(Cl)c1 | -8 | 105 | 110 | -2
O=C(O)CC1S/C(=N/N=C2\CSC(=O)N2)NC1=O (stereo not given) | 10 | 98 | 106 | 5
